Tgondii IFNg = T. gondii growth inhibition with IFN-gamma, primary screen, cell-based | Toxoplasma gondii growth in IFN-gamma-treated host cells; hits give low values; reference of the scale not given here | activity change, negative = inhibition, %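 (about 20 µM by stock and volumes)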 | hit rate 3.8% among 69,000;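 active = below -70%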;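 note: host cells are HeLa cells infected with Toxoplasma gondii; parasite growth read as luciferase light; one replicate is shown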
Active calls of the source: *; & = joins results of further samples.

SMILES | Tgondii IFNg
COCC1c2nnn(CC3CC3)c2CCN1Cc1c(C)noc1C (stereo not given) | 2.3
CS(=O)(=O)N(Cc1ccc(Cl)cc1)c1ncc(C(F)(F)F)cc1Cl | -14.0
Cc1ncc(CO)c(CN2CCCCC2c2ccc(F)cc2)c1O (stereo not given) | -39.7
O=C(O)CCc1c[nH]c2ccccc12 | 15.2
CC(NS(=O)(=O)c1ccc(S(=O)(=O)N2CCOCC2)cc1)c1cccs1 (stereo not given) | -5.8
CCn1cc(CN2CCC(N3CCCC(C(=O)N4CCCC4)C3)CC2)cn1 (stereo not given) | -1.1
CC(Oc1ccccc1)C(=O)Nc1ccc(S(=O)(=O)NCC2CCCO2)cc1 (stereo not given) | -53.3
CN1CCC(Cc2noc(COCc3ccccc3)n2)CC1 | 18.9
CCOc1ccc(NC(=O)CSc2nnns2)cc1 | 4.5
COc1ccc(C(=O)CSc2n[nH]c(=O)n2Cc2ccco2)cc1 | -19.0
O=C(CC1CC2(CCN(C(=O)c3ccccn3)CC2)Oc2ccccc21)NCC1CC1 (stereo not given) | 2.1
CC(C)NC(=O)N1CCC2(CC1)CC(CC(=O)N1CCCC1)c1ccccc12 (stereo not given) | -32.1
C1=C[C@H]2C[C@@H]1C[C@H]2CCn1ccnc1-c1cnc[nH]1 | 3.7
CCC(=O)N1CC[C@@H]2[C@H]1c1cc(C#Cc3ccccc3F)ccc1N[C@@H]2CO | -43.3
CCCn1ccnc1CN1CCC(O)(c2ccc3nc(C)ccc3c2)CC1 | -5.1
Cc1ccccc1-c1cnc2c(c1)C(=O)N([C@H](C)CO)C[C@H](C)[C@H](CN(C)Cc1ccccc1F)O2 | 169.8
O=C(c1cc2cccnc2n(Cc2ccc(F)cc2)c1=O)N1CCCC1 | 49.9
CCn1nc(C)c(Cn2ccnc2-c2cnc(N3CCOCC3)nc2)c1C | -1.7
COc1ccc(F)c(-c2cncc(C(=O)N3CCOCC3)n2)c1 | -3.9
Cc1ccsc1C(=O)N1CCC(N2CCCC2)CC1C(=O)O (stereo not given) | 9.3
Cc1cc(C)cc(C(=O)N2CCc3c(CNc4ncccn4)nn(C)c3C2)c1 | 12.6
O=c1cc(-c2cccnc2)nc(-c2ccc(CN3CCCNCC3)cc2)[nH]1 | -46.1
CN(C)c1nc2c(c(=O)[nH]1)CCN(C(=O)c1ccccc1-n1cccn1)C2 | -0.2
C/C=C/c1ccc([C@H]2[C@@H](CO)N[C@@H]2CN(CC)C(=O)CN2CCOCC2)cc1 | 11.3
N#Cc1c(C(F)(F)F)cc(-c2ccco2)nc1SCc1ccccn1 | -4.6
O=C([C@H]1[C@H](CO)[C@H]2Cn3c(cccc3=O)[C@H]2N1C(=O)CC1CC1)N1CCc2ccccc2C1 | 13.0
CN1CCN(c2ccc(-c3ccccc3)nn2)CC1C(=O)O (stereo not given) | 6.5
Cc1csc(NC(=O)C2C3C=CC(O3)C2C(=O)O)n1 (stereo not given) | -3.2
N=C(N)S/C=C\C(=O)O | 30.9
CC[C@H]1C/C=C\C[C@H](CC)NC(=O)[C@@H](C)CC(=O)N1 | 32.5
Fc1ccccc1-c1nccn1Cc1ccccc1-n1ccnc1 | 12.9
CCC#CCn1nc(C2CCNCC2)n(Cc2ccccc2)c1=O | 0.9
CCS(=O)(=O)N1CCc2nc(-c3cccc(F)c3)nc(NC3CC3)c2C1 | -34.8
Cc1cn(CCNC(=O)C(c2cccc(F)c2)N(C)C)nn1 (stereo not given) | 4.0
CCc1ccc(CN(C)Cc2cnc3c(-c4ccccc4)cnn3c2)nc1 | -5.8
Cc1c(CNCCc2c[nH]c3ccccc23)c(C(=O)O)c(C)n1Cc1cccc(F)c1 | 8.5
Cc1nc(CN2CCN(CCC(=O)Nc3nccs3)CC2)no1 | 23.1
COCCN1C(=O)CCc2cc(NC(=O)Cc3cccc(F)c3)ccc21 | 19.4
CN1C(=O)c2cc(NC(=O)c3cccc(Cl)c3)ccc2OC[C@@H]2O[C@@H](CC(=O)NC3CCCCC3)CC[C@@H]21 | -14.9
O=C(O)CSc1nc2cc(Cl)ccc2s1 | -106.8*
Cc1cc(C)n(-c2ccc(CCC(=O)Nc3ccc4nc[nH]c(=O)c4c3)cc2)n1 | 6.9
O=C(C[C@H]1CC[C@@H]2[C@H](COC[C@@H](O)CN2C(=O)Nc2cc(Cl)cc(Cl)c2)O1)N1CCOCC1 | -33.9
COc1cc(OC)cc(C(=O)N2CSC[C@@H]2C(=O)NCCc2csc(-c3ccccc3)n2)c1 | -60.0
COc1ccc(C(O)CN2CCCC2c2ccc(C)c(C)c2)cc1NC(C)=O (stereo not given) | 67.6
Cc1nn(-c2ccccn2)c2nc(C3CCCN3C(=O)CCCc3ccc(F)cc3)ccc12 (stereo not given) | -27.2
CCCN1CCC(Cc2noc(-c3cccnc3OC)n2)CC1 | -3.8
CN(Cc1n[nH]c2c1CCCCC2)C(=O)c1ccc(-n2cnnn2)cc1 | 1.2
CC(C)NC(=O)N1CCc2nc(N3CCOCC3)nc(N(C)C)c2C1 | -0.4
O=C(Cn1ncc2c(N3CCCCCC3)ncnc21)NCCC1=CCCCC1 | -31.9
O=C(NCc1ccc(N2CCOCC2)cc1)c1cn2c(n1)CCCC2 | -0.8
COc1ccc2cc(-c3ccccc3NC(=O)CN)ccc2c1 | 70.1
Cc1nnsc1CN(C)Cc1cnc(-c2cccc3ccccc23)nc1 | -4.7
CCN1CCC(c2nc3ccc(NC4CCC4)cn3n2)CC1 | -45.8
C[N+](C)(C)CCOC(N)=O | -8.4
Nc1ccccc1CN1CCN(CCO)CC1 | 37.5
Cc1ccsc1[C@@H]1CCN(Cc2c(C)nn(C)c2Cl)C[C@H]1O | -3.3
COc1cccc(NC(=O)Cn2ncc3c(N4CCN(c5ccccn5)CC4)ncnc32)c1 | -3.4
CN(C)CC(=O)N1[C@H](C#N)[C@H](c2ccc(C#CC3CCCCC3)cc2)[C@H]1CO | -0.3
O=C(C[C@@H]1C[C@@H]2C=C[C@H]1C2)NCc1ccccc1-n1cncn1 | -41.8
CC[C@H]1N(CCOCc2ccccc2)CCC[C@@]12CCC(=O)N2C | 14.1

Later entries
SMILES | Tgondii IFNg
COc1ccc(CC(=O)N2CCn3nnc(COc4cccnc4)c3C2)cc1 | -6.8
CCOCc1ncn2c1CN(C(=O)c1occc1C)CC2 | 22.4
CCCCOc1ccc(C(=O)NCCc2csc(-c3ccc(F)cc3)n2)cc1 | -61.5
Cc1nc2cnccn2c1NCCC(=O)N1CCC(Cc2ccccc2)CC1 | 111.7
CS(=O)(=O)c1ccc(-c2nccc(N3CCC(O)CC3)n2)cc1 | 3.9
CCc1ccccc1NC(=O)Cn1c(=O)cc(C(=O)N2CCOCC2)c2ccccc21 | 13.4
Cn1nc(C#N)c2c1CN(S(C)(=O)=O)CCC2 | -34.3
CC(=O)N1CC2(CCN(C(=O)c3cccc(N(C)C)c3)CC2)CC1C(=O)O (stereo not given) | -25.1
COc1ccccc1C(=O)N1CCN(Cc2cnc(N(C)C)nc2)CC1 | -48.4
CCC(=O)Nc1ccc2c(c1)C(=O)N(C)C[C@H](OC)[C@@H](C)CN(Cc1nccs1)[C@@H](C)CO2 | 105.3
C#C[C@]1(O)CCC2C3CCc4cc(OC5CCCC5)ccc4C3CC[C@@]21C (stereo not given in full) | -6.0
COc1ccc(C(=O)N2CCC3(CC2)NC(=O)c2ccccc2N3C)cc1OC | -11.8
CC(Oc1ccccc1-c1ccccc1Cl)C(N)=O (stereo not given) | -7.3
O=C(NCc1cc(=O)n2c(n1)CNCCC2)c1ccco1 | 325.6
Cc1ccc(S(=O)(=O)N2Cc3ccccc3C(C)CC23CCCCC3)cc1 (stereo not given) | -44.5
O=C(CCc1nc(-c2cccnc2)no1)N1CCC(c2cc3cccnc3c(=O)[nH]2)CC1 | 22.3
Cc1csc2c(N3CCC(O)(CO)CC3)ncnc12 | 2.4
O=C(Nc1ccc(F)cc1F)c1nc(Nc2ccc(Cl)cc2)c2ccccc2n1 | 14.8
Cc1ccc2c(c1)C1C3CCC(C3)C1S(=O)N2 (stereo not given) | 130.6
C[C@@](Cc1ccc(O)c(O)c1)(NN)C(=O)O | 6.2

Entries listed so far with a CF3 group, in the order listed:
SMILES | Tgondii IFNg
CS(=O)(=O)N(Cc1ccc(Cl)cc1)c1ncc(C(F)(F)F)cc1Cl | -14.0
N#Cc1c(C(F)(F)F)cc(-c2ccco2)nc1SCc1ccccn1 | -4.6

4 structures from above, arranged by number of heavy atoms, descending:
SMILES | Tgondii IFNg
CCC(=O)Nc1ccc2c(c1)C(=O)N(C)C[C@H](OC)[C@@H](C)CN(Cc1nccs1)[C@@H](C)CO2 | 105.3
O=C(C[C@@H]1C[C@@H]2C=C[C@H]1C2)NCc1ccccc1-n1cncn1 | -41.8
Cc1ccsc1C(=O)N1CCC(N2CCCC2)CC1C(=O)O (stereo not given) | 9.3
CCOc1ccc(NC(=O)CSc2nnns2)cc1 | 4.5

Further compounds follow.
SMILES | Tgondii IFNg
O=C1CN(CC2(O)CCCN(CCc3ccccc3)C2=O)CCCN1 (stereo not given) | 4.0
COc1ccc(OCC(=O)Nc2cc(-c3nc4ccccc4o3)ccc2C)cc1 | 74.0
CCSc1nnc2c(n1)OC(c1cccc(F)c1)N(C(C)=O)c1ccccc1-2 (stereo not given) | 81.2
C[C@@H]1CN([C@H](C)CO)C(=O)CCCn2nncc2CO[C@@H]1CN(C)C(=O)c1cc(-c2ccccc2)on1 | -68.1
CCOC(=O)Cc1csc(NC(=O)CCCOc2ccc(Cl)cc2)n1 | -10.0
COCC(=O)Nc1cc(OC)c(OC)cc1C(=O)OC | 18.0
CNC[C@H]1OCCCC[C@@H](C)Oc2ccc(N)cc2C(=O)N([C@@H](C)CO)C[C@@H]1C | 70.0
Cc1ccc(-c2coc(-c3ccc(NC(=O)Nc4ccc(F)c(Cl)c4)cc3)n2)cc1 | 93.4
O=C(c1ccco1)N1CCc2c([nH]c3ccccc23)C1c1ccc(Cl)cc1 (stereo not given) | -87.6*
COc1ccccc1C(=O)Oc1ccc2c(c1)O/C(=C\c1ccncc1)C2=O | 10.5
COc1ccccc1S(=O)(=O)N1CC[C@@H]2[C@H]1c1cc(-c3ccc(C#N)cc3)ccc1N[C@@H]2CO | -15.3
CN(C[C@@H]1N[C@H](CO)[C@H]1c1ccc(C2=CCCC2)cc1)C(=O)c1cccc(F)c1 | 10.1
Cc1ccc(-c2nc(CN3CCN(C(=O)Nc4cccc(C)c4)CC3)c(C)o2)cc1 | 1.3
O=C(Nc1cnn(-c2ncc(N3CCCCC3)cn2)c1)C1CCCC1 | 50.5
C=CCN1CC[C@@]2(CN(C3CCOC3)C[C@H]2c2ccccc2)C1=O (stereo not given in full) | -10.9
CCOC(=O)c1cc2cc3ccccc3cc2[nH]1 | 291.2
CCOC(=O)CN1C(=O)Nc2ccc(Br)cc2C1c1ccccc1 (stereo not given) | 9.6
COc1ccc(S(=O)(=O)Nc2ccc3c(c2)C(=O)N([C@@H](C)CO)C[C@H](C)[C@@H](CN(C)S(=O)(=O)c2ccc(Cl)cc2)OCCCC[C@@H](C)O3)cc1 | -112.7*
O=C(c1ccc2nc(CO)[nH]c2c1)N1C[C@@H]2[C@@H]3CC[C@@H](C3)[C@@H]2C1 | -18.3
N/C(Cc1ccc(Cl)cc1Cl)=N\OC(=O)c1ccc(Br)o1 | -85.8*
O=c1[nH]c(CN(Cc2cccs2)S(=O)(=O)c2ccc(F)cc2)nc2ccccc12 | -0.5
CCCC1=NN(c2ccc(S(N)(=O)=O)cc2)C(=O)C1 | 0.7
COCC(c1ccccn1)N(C)C(=O)c1noc2c1CCCC2 (stereo not given) | 4.3
CCCNC(=O)N1CC2(C1)[C@H](c1ccccc1)[C@@H](CO)N2C(=O)c1cccnc1 | -38.1
CCc1ccccc1NC(=O)COC(=O)C1C2CC3OC(=O)C1C3C2 (stereo not given) | -24.0
CC(C)c1ccc(NS(=O)(=O)c2cc3c4c(c2)CCC(=O)N4CCC3)cc1 | 2.0
Cc1ccc(C)c(-n2c(C)cn3c4c(=O)n(CCN5CCOCC5)c(=O)n(C)c4nc23)c1 | -76.5*
N[C@H](Cc1cnc[nH]1)C(=O)O | 16.4
O=S(=O)(O)CCSSCCS(=O)(=O)O | 4.7
CC(C)NCC(O)c1ccc(NS(C)(=O)=O)cc1 (stereo not given) | 13.6&3.7
C=CCN(CC#Cc1ccccc1)Cc1ncc[nH]1 | -1.4
Fc1cccc(F)c1-c1nc(-c2cccc(-n3cccc3)c2)no1 | 132.6
CCN(CC)c1ccc(NC(=O)C2CCCCC2)c(N(CC)CC)n1 | -13.0
CC(=O)N1N=C(c2c(-c3ccccc3)c3cc(Cl)ccc3[nH]c2=O)CC1c1ccccc1F (stereo not given) | -66.3
O=C(O)[C@H]1C[C@@H](C(=O)Nc2ccc(F)cc2)CN(C(=O)C2CCOCC2)C1 | 0.8
CCc1ccc2oc(=O)cc(CN3CCN(Cc4nc(-c5ccc(OC)cc5)oc4C)CC3)c2c1 | -0.3
O=C(NNC(=O)c1cccs1)c1ccco1 | 5.2
CNS(=O)(=O)c1ccc(CN2CCCC2c2ccc(F)cc2)cc1 (stereo not given) | 6.1
CN1Cc2c(C(=O)OC(C)(C)C)ncn2-c2ccsc2C1=O | 15.3&8.2
Cc1cc(C)n(-c2ccc(C(=O)Nc3nc(-c4cc(C)sc4C)cs3)cc2)n1 | 4.9

Part of the list above in a different format:
Molecule	Tgondii IFNg
CCc1ccccc1NC(=O)COC(=O)C1C2CC3OC(=O)C1C3C2 (stereo not given)	-24.0
CC(C)c1ccc(NS(=O)(=O)c2cc3c4c(c2)CCC(=O)N4CCC3)cc1	2.0
Cc1ccc(C)c(-n2c(C)cn3c4c(=O)n(CCN5CCOCC5)c(=O)n(C)c4nc23)c1	-76.5*
N[C@H](Cc1cnc[nH]1)C(=O)O	16.4

Next section:
SMILES | Tgondii IFNg
O=C(CN1C(=O)CCc2cc(S(=O)(=O)N3CCCCC3)ccc21)Nc1ccccc1 | -22.3
CN1C(=O)c2cc(NC(=O)c3cccc(F)c3)ccc2OC[C@@H]2O[C@@H](CC(=O)NCc3ccccc3Cl)CC[C@@H]21 | -38.7
CCn1ncc2[nH]c(-c3cnn(C)c3-c3ccccc3)nc21 | -3.1
CCCS(=O)(=O)c1cc2cc(Cl)ccc2oc1=O | 98.4

Screening results deposited in PubChem by Broad Institute.

An excerpt; rates above refer to the full screens.
